Screening data deposited in PubChem by National Center for Advancing Translational Sciences (NCATS).
FEN1 inhibitor – qHTS Assay for the Inhibitors of Human Flap endonuclease 1 (FEN1). Recombinant FEN1 flap cleavage, fluorescence, 15 min. Potency, µM (series often up to 114 µM), for inactives: at the top dose activity change, negative = inhibition, actives largely listed as inhibitors. 390,000 compounds, 0.35% hits; also: nearly all actives have a fitted effect of over 65% in size
Target sequence (P39748 whole entry, looked up): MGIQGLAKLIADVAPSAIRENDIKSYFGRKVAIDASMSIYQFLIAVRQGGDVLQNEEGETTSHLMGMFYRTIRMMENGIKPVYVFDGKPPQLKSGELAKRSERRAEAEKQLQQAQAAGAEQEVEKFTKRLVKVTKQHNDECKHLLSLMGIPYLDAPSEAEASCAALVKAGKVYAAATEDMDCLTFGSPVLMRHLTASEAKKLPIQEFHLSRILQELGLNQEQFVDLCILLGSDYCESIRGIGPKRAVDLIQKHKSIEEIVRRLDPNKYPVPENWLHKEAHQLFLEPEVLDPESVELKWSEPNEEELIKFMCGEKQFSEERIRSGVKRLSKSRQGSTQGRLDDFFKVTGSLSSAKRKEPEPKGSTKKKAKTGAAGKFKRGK
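In this screen, 50 nM flap DNA substrate was added to 10 nM FEN1 pretreated with compound for 15 min at room temperature; cleavage was followed with reads at 0 and 15 min, and Hill fitting gave concentration–response parameters.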
TDP1 cell CPT – qHTS for Inhibitors of human tyrosyl-DNA phosphodiesterase 1 (TDP1): qHTS in cells in presence of CPT; chicken DT40 Tdp1-/-;hTDP1 cells + 20 nM CPT, ATP luminescence, 48 h; Potency, µM (series often up to 46.2 µM), inactives show top-dose activity change, negative = growth inhibition, hits mostly inhibitors; 420,000 compounds, 12% hits; also: nearly all actives have a fitted effect of over 55% in size
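Chicken DT40 Tdp1-/- cells stably complemented with human TDP1 were seeded at 400 cells/well in medium containing 20 nM camptothecin, exposed to pin-transferred compounds, and grown at 37 °C for at least 48 hr. Viability was read as ATP luminescence.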
The depositor's hits bear a star; ? = inconclusive; . = no result given; & = joins results of further samples; [ ] = remark or other dose. Calls follow the shape of the dose curve; as a rule, active = well fitted curve in the direction sought with a large enough effect; inconclusive = small, poorly fitted or top-dose-only effect, or another doubt; inactive = no such curve, though single readings can be large; an effect the other way counts as inactive or inconclusive. % is scaled to controls: 0 for no effect and ±100 for the full control effect; potency is read from the fitted curve at half-maximal effect. A portion of the library; most or all hits stand in other tables.

smiles,FEN1 inhibitor,TDP1 cell CPT
Nc1nonc1-n1nnc(C(=O)N/N=C/c2ccccn2)c1CNc1ccccc1,-1%,?
CO/N=C/c1ccc(N2CCN(C(=O)c3ccc(F)cc3)CC2)c([N+](=O)[O-])c1,-7%,15µM*
CCc1c(C)[nH]c2c1C(=O)C(CN1CCOCC1)CC2 (stereo not given),3%,-1%
CCOc1ccc(CCNC(=O)c2ccc(S(=O)(=O)N3CCCC3)cc2)cc1OCC,-9%,?
COc1cc(OC)cc(C(=O)Nc2nc(CC(=O)NCCc3ccccc3)cs2)c1,1%,?
CC(C)c1ccc(-c2csc3nc[nH]c(=O)c23)cc1,-14%,-11%
O=C(CSc1cn(CCNC(=O)c2cccs2)c2ccccc12)NC1CCCCC1,1%,?
CCC(Sc1nnc(C)c(=O)[nH]1)C(=O)Nc1cccc2ccccc12 (stereo not given),-1%,-6%
Nn1c(SCC(=O)Nc2ccc3c(c2)OCCO3)nnc1-c1ccncc1,2%,0%
CC(C)(C)N(NC(=O)Nc1ccc(Cl)cc1)C(=O)c1ccccc1,-3%,?
CC1(C)CC(=O)C(Sc2nnc(-c3ccc(O)cc3)n2CC2CCCO2)C(=O)C1 (stereo not given),2%,15%
CCN(CC)c1ccc(C(=O)N/N=C/c2ccccc2OC(F)F)cc1,9%,?

The closing 2 records of the section before lead into the next:
smiles,FEN1 inhibitor,TDP1 cell CPT
CC1(C)CC(=O)C(Sc2nnc(-c3ccc(O)cc3)n2CC2CCCO2)C(=O)C1 (stereo not given),2%,15%
CCN(CC)c1ccc(C(=O)N/N=C/c2ccccc2OC(F)F)cc1,9%,?
C=CCn1cnc2c(c1=O)c1nc3ccccc3nc1n2/N=C/c1cccc(OC)c1,-12%,0%
N#CCC(=O)Nc1ccc(C(=O)OCC(=O)c2ccc3c(c2)OCO3)cc1,3%,4%
O=C(COc1ccccc1Cl)NCCNC(=O)c1ccccn1,1%,-4%
C=CCc1cccc(C=Nc2cc(Br)ccc2O)c1O,1%,?
COc1ccc(-n2c(C)cc(/C=C3/SC(=O)N(CC(=O)N4CCOCC4)C3=O)c2C)cc1,-3%,9%
CN(C(=O)COC(=O)c1cc2c(s1)CCCCC2)C1CCS(=O)(=O)C1 (stereo not given),-3%,12%
O=C(O)C1CC(=O)N(Cc2ccc(F)cc2)C1 (stereo not given),-2%,-2%
O=C1OCC/C1=C\OCCCO/C=C1\CCOC1=O,-6%,7%
CC1=C(C(=O)OC(C)C)C(c2ccc3c(c2)OCO3)NC(=O)N1 (stereo not given),-9%,-14%
O=C(Cc1csc2ccccc12)NCc1ccc(F)cc1,-17%,10%
c1csc(-c2nnc(-c3ccc(N4CCOCC4)cc3)o2)c1,-8%,?
COC(=O)c1ccccc1NC(=O)C(C)c1ccc([N+](=O)[O-])cc1 (stereo not given),1%,?
O=C(Cn1nc(CNc2ccc(Cl)cc2)[n+]2c1CCCCC2)c1ccccc1,4%,5.2µM*
CCn1c(=O)c2cc(C(=O)N(C)c3cc(C)ccc3OC)sc2c2ccccc21,-6%,?
COCCn1c(SCc2ccccc2F)nc2ccccc2c1=O,-19%,?
C=CCC1CCC/C(=N\NS(=O)(=O)c2ccc(C)cc2)C1 (stereo not given),9%,?
CCCCC12CN3CC(C)(CN(C1)C3c1ccc([N+](=O)[O-])o1)C2=O (stereo not given),-5%,-11%
N#Cc1c(N)n[nH]c1CCCN,-2%,6%
Cn1c(-c2ccc(F)cc2)cnc1NCc1cccc([N+](=O)[O-])c1,-10%,?
Cc1cc(C)n2nc(SCC(=O)N3CCN(c4ccc(F)cc4)CC3)nc2n1,13%,-2%
CS(=O)(=O)c1ccc(Cl)c(NC(=O)C2CCCN(C(=O)c3ccc(Cl)cc3)C2)c1 (stereo not given),0%,-11%
Cc1ccc(NC(=S)N2CCN(C(=O)C3CCCO3)CC2)cc1 (stereo not given),-5%,1%
Cc1cccc(-n2c(C)nc3c(cnn3-c3ccc(F)cc3)c2=O)c1,4%,18µM*
COC(=O)CCCC(=O)NCC1(N(C)Cc2ccccc2)Cc2ccccc2C1,2%,3%
COC(=O)CC/C(C)=N\Nc1ccc([N+](=O)[O-])cc1[N+](=O)[O-],4%,-6%
Cc1ccc(NC(=O)N2CCCC2C(=O)NCc2ccc3c(c2)OCO3)cc1 (stereo not given),-9%,2%
CCc1nc(N2CCN(CC(=O)NCC3CCCO3)CC2)c(C#N)c2c1COC(C)(C)C2 (stereo not given),-7%,?
CCN(CC)c1nc2ccccc2n(Cc2cccc(OC)c2)c1=O,-16%,-15%
CCOC(=O)c1cnn(-c2cc(C)nc3c(-c4ccccc4)c(C)nn23)c1N,5%,-21%
CCOC(=O)N1CCN(Cc2nc3cc(NC(=O)CC(C)C)ccc3n2C)CC1,-5%,-23%
COc1ccccc1C(=O)Nc1ccnn1C1CCN(C(=O)C(C)(C)C)CC1,1%,-7%
CCc1nccn1C(=O)c1cnn2c(C(F)F)cc(-c3ccc(C)cc3)nc12,-8%,21µM*
O=C(c1cnn2c(C(F)(F)F)cc(-c3ccc4c(c3)OCO4)nc12)N1CCCCC1,1%,?
Cc1ccccc1Cn1ccc(NC(=O)c2cnn3c2NC(c2ccccc2)CC3C(F)(F)F)n1 (stereo not given),11%,?
O=C(NCC1CCCN(Cc2ccc3nonc3c2)C1)c1ccc(F)cc1 (stereo not given),7%,-2%
Cc1ccnc(NC(=O)CCC(=O)N(CC(=O)NCc2ccccc2)Cc2ccc(F)cc2)c1,10%,-5%
C/C(=N\OC(=O)c1c(-c2c(F)cccc2Cl)noc1C)c1nccs1,-2%,-25%
C#CCOc1ccc(/C=C2/C(=O)NN(c3ccc(F)cc3)C2=O)cc1OC,9%,0%
CCN1CCN(c2c(S(=O)(=O)c3ccccc3)cnc3ccc(Cl)cc23)CC1,-2%,-21%
CCN(CC)CCCNC(=O)CCc1ccccc1,6%,16%
O=C1CC(c2ccccc2)CC(O)=C1C=NCc1ccccc1 (stereo not given),-8%,-22%
O=C(O)C1CCN(c2nc(-c3ccccc3)c3cc(Br)ccc3n2)CC1,-12%,-8%
COc1ccc(Nc2ccc(N3C(=O)CCCC3=O)cc2[N+](=O)[O-])cc1OC,-10%,-18%
COc1cccc(NC(=O)CN(C)C(=O)C2CCN(C(=O)c3ccccc3C)CC2)c1,-6%,4%
CCOC(=O)/C=C1\SCC(=O)N1CC(=O)NC1CCCCC1,1%,0%
Cc1c(C(=O)NCc2ccccc2Br)oc2ccc3c(c12)C(=O)CC(C)(C)O3,-12%,?
CCOC(=O)C(=NC1CCCCC1)NNc1cccc(C(F)(F)F)c1,-22%,?
Cc1cc(Cl)c(S(=O)(=O)Nc2ccon2)cc1OCC(=O)NC1CCCCC1,-6%,-5%

A draw from above in order of molecular weight, highest first.
smiles,FEN1 inhibitor,TDP1 cell CPT
Cc1c(C(=O)NCc2ccccc2Br)oc2ccc3c(c12)C(=O)CC(C)(C)O3,-12%,?
CCN1CCN(c2c(S(=O)(=O)c3ccccc3)cnc3ccc(Cl)cc23)CC1,-2%,-21%
COc1ccc(Nc2ccc(N3C(=O)CCCC3=O)cc2[N+](=O)[O-])cc1OC,-10%,-18%

Going on with the list.
smiles,FEN1 inhibitor,TDP1 cell CPT
COC(=O)CSc1nccc(-c2cccs2)n1,-1%,4%
CCN(CC(=O)NCc1ccccn1)S(=O)(=O)c1ccc(Cl)cc1,-2%,13%
COc1ccc(C(=O)NCc2nnc(SCC(=O)N3CCOCC3)o2)cc1,-2%,5%
COc1cccc(CNC(=O)Cn2c(SCC(=O)Nc3ccc(F)cc3)nc3ccccc32)c1,47%[activator],?
COC(=O)[C@]1(Cc2ccccc2)N[C@H](CN(C)C(=O)Nc2ccccc2)[C@@H]2C(=O)N(Cc3ccccc3)C(=O)[C@@H]21,3%,?
CCN(CC)S(=O)(=O)c1ccc(C)c(NC(=O)COc2ccc(Br)cc2Cl)c1,5%,-21%
NC(=O)c1ccccc1NC(=O)CCCCCn1nnc2ccccc2c1=O,12%,-18%
COC(=O)c1cc(NS(=O)(=O)c2cccc(Cl)c2)ccc1N1CCOCC1,20%,?
S=C(Nc1ccccc1)N1CCn2c(nc3ccccc32)C1,-6%,2%
CCn1c2ccccc2c2cc(NC(=O)COC(=O)c3ccc(O)cc3)ccc21,-3%,-5%
COC(=O)CSc1nc2cc3c(cc2cc1C)OCCO3,-24%,-18%
CCOc1ccc(OCc2ccc(C(=O)N(C)c3ccccc3)o2)cc1,-21%,-3%
C/C(=N\NS(=O)(=O)c1ccccc1)c1ccc2c(c1)OCCO2,2%,-1%
Cc1cc(NC(=O)c2cc(-c3cccc(Cl)c3)on2)no1,7%,-10%
COc1ccc(Cl)cc1NC(=O)CN(C)C(=O)c1ccc(-n2nc(C)cc2C)cc1,-10%,18µM*
O=C(COc1ncnc2ccccc12)N1CCOCC1,-1%,-3%
Cc1ccc(-n2nc(C)c(C(=O)N3CCN(C(=O)c4ccco4)CC3)c2-n2cccc2)cc1,7%,?
Cc1ccc(Cl)cc1N1CCN(C(=O)CN2C(=O)COc3ccc(S(=O)(=O)N4CCCCCC4)cc32)CC1,-1%,.
COc1ccc(C(=O)N2CCCC(c3nc(-c4cccs4)no3)C2)cc1OC (stereo not given),-18%,-4%
Cc1csc(SCCn2c(N3CCOCC3)nc3c2c(=O)[nH]c(=O)n3C)n1,-1%,-3%
O=C(COC(=O)c1cccc(Br)c1)Nc1ccc2[nH]c(=O)[nH]c2c1,-3%,8%
c1ccc(CSc2ncccn2)cc1,1%,-3%
O=C(C[C@H]1C(=O)N(C2CCCCC2)C[C@@H]1Cc1ccccc1)Nc1ccccc1,-8%&-11%,?
CCN(C(=O)Cn1c(=O)oc2ccccc21)c1cccc(C(F)(F)F)c1,-3%,-3%

The list goes on; the last five above are carried over.
smiles,FEN1 inhibitor,TDP1 cell CPT
Cc1csc(SCCn2c(N3CCOCC3)nc3c2c(=O)[nH]c(=O)n3C)n1,-1%,-3%
O=C(COC(=O)c1cccc(Br)c1)Nc1ccc2[nH]c(=O)[nH]c2c1,-3%,8%
c1ccc(CSc2ncccn2)cc1,1%,-3%
O=C(C[C@H]1C(=O)N(C2CCCCC2)C[C@@H]1Cc1ccccc1)Nc1ccccc1,-8%&-11%,?
CCN(C(=O)Cn1c(=O)oc2ccccc21)c1cccc(C(F)(F)F)c1,-3%,-3%
Cc1cc2nc(C)c(Cl)c(=O)n2[nH]1,6%,7%
O=C(CSC1=NCCS1)Nc1cccc(F)c1,0%,7%
Cn1c(=O)c(=O)n(C)c2cc(S(=O)(=O)N3CCCC3C(=O)NCc3cccs3)ccc21 (stereo not given),-2%,-16%
CCCN1C(=O)C(O)(C2COC(C)(C)CC2=O)c2ccccc21 (stereo not given),0%,3.7µM*
O=C(c1ccc(N2CCOCC2)c([N+](=O)[O-])c1)N1CCCCC1,-8%,-11%
COc1ccccc1NC(=O)c1c(N=Cc2c(O)ccc3ccccc23)cnn1C,-15%,8.2µM*
CCC(=O)Nc1cc(-c2nc3cc(C)cc(C)c3o2)ccc1C,-11%,?
CC(=O)NCCC(=O)Nc1cc(S(=O)(=O)Nc2ccc(Cl)cc2)ccc1N1CCCC1,-1%,?
CCOc1ccc(-c2cc(CCCC(=O)NCCc3ccc(OC)c(OC)c3)no2)cc1,-1%,?
COc1ccccc1CNC(=O)CCC(=O)Nc1nnc(C)s1,-2%,-12%
CCn1c(NC(=O)Nc2ccccc2OC)nc2ccccc21,-11%,-7%
CCN(CC)S(=O)(=O)c1cc(NC(=O)Cc2ccsc2)ccc1C,4%,-24%
CC(C)C(=O)N1CCC(n2nccc2NC(=O)CCOc2ccccc2)CC1,-1%,-23%
COc1ccc(C=O)cc1Cn1c(=O)n(CCC(=O)NCc2ccco2)c(=O)c2sccc21,0%,8%
CCOc1ccc(S(=O)(=O)N2CCC(C(=O)OCc3ccc(OC)cc3)CC2)cc1,-9%,-16%
CCC(C(=O)OCC(=O)Nc1cc(Cl)cc(Cl)c1)c1ccccc1 (stereo not given),-19%,?
CC1CCN(CC(C)OC(=O)c2ccco2)CC1 (stereo not given),-5%,23%
COC(=O)c1ccccc1NC(=O)/C=C/c1cc(OC)c(OC)c(OC)c1,5%,21µM*
Cc1[nH]c2ccccc2c1CCNC(=O)c1c(N)no[n+]1[O-],-4%,17%
Cn1c(=O)c2c(nc(N3CCN(c4ccc([N+](=O)[O-])cc4)CC3)n2C)n(C)c1=O,-13%,-20%
